Source: PubChem BioAssay
miR-21 reporter: raises the signal of a miR-21 reporter; HeLa miR-21 FLuc reporter, luciferase, 48 h; 340,000 tested, under 10 active; Potency, µM (titrated, usually from 38.3 µM), for inactives: at the top dose reporter change, positive = more light; AID 2288; active = well fitted rising curve with a large enough effect; inconclusive = small, poorly fitted or top-dose-only effect; inactive = no such curve, though single readings can be large or run the other way;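 also: % of control where 0% means no effect; miR-21 action dims this reporter so a rising signal means less miR-21 action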
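Compounds were titrated across several concentrations (up to approximately 40 uM) and incubated 48 hours with HeLa miR-21-FLuc reporter cells (miR-21 target sequence downstream of FLuc, endogenous miR-21). Readout was firefly luciferase luminescence after lytic detection reagent.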
Active calls of the source: *; ? = inconclusive.

Start of the listing, in advance (15 entries):
Molecule,miR-21 reporter
CN(C1CCCCC1)S(=O)(=O)c1ccc2c(c1)c(=O)c(C(=O)N1CCN(c3ccccc3F)CC1)cn2C,-2%
COC(=O)c1nnn(-c2ccc(Br)cc2)c1C(=O)OC,1%
CN(Cc1ccccc1)Cc1c(O)ccc2c(=O)c(-c3ccccc3)c(C(F)(F)F)oc12,-10%
CCCS(=O)(=O)N1CC(=O)N(c2ccc(C)cc2C)C(C)(C(=O)NC2CCCCCC2)C1 (stereo not drawn),-1%
CCc1ccc(C2=NN(CCC(=O)NCCc3ccccc3)C(=O)CC2)cc1,0%
COc1ccc(C(=O)Nc2cc(-c3cccc(C)c3)nn2-c2ccccc2)cc1,-2%
COc1ccc(CNc2ncnc3c2nnn3C)cc1,-19%
Cc1ccc(N2CC(NC(=O)c3cccs3)CC2=O)cc1C (stereo not drawn),-3%
COc1cc2c(cc1OC)n(Cc1cccc(C(F)(F)F)c1)c(=O)n1nc(-c3ccccc3)nc21,1%
Cc1ccc(-n2nc(CO)c(C(=O)NCCc3ccccc3)n2)cc1C,-8%
COC(=O)c1ccccc1NC(=O)CCCn1c(=O)c2cccn2c2cccnc21,-6%
COc1cccc(NC(=O)c2cnn(-c3ccccc3)c2-n2cccc2)c1,1%
CC(C)c1ccc(NC(=O)C2CCN(S(=O)(=O)c3cccc4nonc34)CC2)cc1,-21%
Cc1ccccc1Cn1c(SCc2ccc(C(=O)NCc3cccs3)cc2)nc2ccncc21,-7%
Cc1ccc(Cl)cc1NS(=O)(=O)c1ccc(N2CCCCS2(=O)=O)cc1,22%

All compounds of this part (from the top)
Molecule,miR-21 reporter
CN(C1CCCCC1)S(=O)(=O)c1ccc2c(c1)c(=O)c(C(=O)N1CCN(c3ccccc3F)CC1)cn2C,-2%
COC(=O)c1nnn(-c2ccc(Br)cc2)c1C(=O)OC,1%
CN(Cc1ccccc1)Cc1c(O)ccc2c(=O)c(-c3ccccc3)c(C(F)(F)F)oc12,-10%
CCCS(=O)(=O)N1CC(=O)N(c2ccc(C)cc2C)C(C)(C(=O)NC2CCCCCC2)C1 (stereo not drawn),-1%
CCc1ccc(C2=NN(CCC(=O)NCCc3ccccc3)C(=O)CC2)cc1,0%
COc1ccc(C(=O)Nc2cc(-c3cccc(C)c3)nn2-c2ccccc2)cc1,-2%
COc1ccc(CNc2ncnc3c2nnn3C)cc1,-19%
Cc1ccc(N2CC(NC(=O)c3cccs3)CC2=O)cc1C (stereo not drawn),-3%
COc1cc2c(cc1OC)n(Cc1cccc(C(F)(F)F)c1)c(=O)n1nc(-c3ccccc3)nc21,1%
Cc1ccc(-n2nc(CO)c(C(=O)NCCc3ccccc3)n2)cc1C,-8%
COC(=O)c1ccccc1NC(=O)CCCn1c(=O)c2cccn2c2cccnc21,-6%
COc1cccc(NC(=O)c2cnn(-c3ccccc3)c2-n2cccc2)c1,1%
CC(C)c1ccc(NC(=O)C2CCN(S(=O)(=O)c3cccc4nonc34)CC2)cc1,-21%
Cc1ccccc1Cn1c(SCc2ccc(C(=O)NCc3cccs3)cc2)nc2ccncc21,-7%
Cc1ccc(Cl)cc1NS(=O)(=O)c1ccc(N2CCCCS2(=O)=O)cc1,22%
CCCn1c(=O)c2sccc2n2c(CCCC(=O)NCCc3ccc(Cl)cc3)nnc12,1%
COc1cccc(C(=O)Nc2ccc(-n3nncc3-c3ccc(Br)cc3)cc2)c1OC,-4%
CCOc1ccc(NC(=O)c2cnc(Nc3ccccc3OC)c3ccccc23)cc1,-43%
CCOc1ccc(CNS(=O)(=O)c2ccc3[nH]c4c(c3c2)CCCC4)cc1OC,6%
COc1cc(/C(C)=C/c2ccccc2)c2c(c1)oc1ccccc12,0%
O=C(CSc1nc2ccccc2nc1Cc1ccc(F)cc1)Nc1ccc2c(c1)OCO2,-5%
Cc1ccc2nc(C)c(CN3CCN(c4ccc([N+](=O)[O-])cc4Cl)CC3)n2c1,17%
COc1ccccc1NC(=O)c1sc2nc(C)c(C(=O)Nc3ccc(C)cc3C)c(-c3ccco3)c2c1N,0%
COc1cc(NC(=O)c2noc3c2CC(C(C)(C)C)CC3)cc(OC)c1OC (stereo not drawn),-12%
Cc1ccc(NC(=O)NC(C)c2c(-n3cccc3)sc(C)c2C)c(C)c1 (stereo not drawn),11%
CCC(=O)N1c2ccccc2CC1C(=O)NCCN1CCN(c2cccc(C(F)(F)F)c2)CC1 (stereo not drawn),28%
COc1ccc(-c2coc3c2c(C)cc2oc(=O)cc(C)c23)cc1,-1%
CC(=O)c1cccc(NC(=O)CSc2nnc3ccc(-c4ccc(Br)cc4)nn23)c1,-4%
COc1ccccc1NC(=O)c1sc2nc(C)c(C(=O)Nc3ccc(Cl)cc3)c(-c3ccc(Br)cc3)c2c1N,-2%
COc1ccc(-c2cc(C(C)=O)c(C)n2CCC(=O)NCc2ccc(F)cc2)cc1,-2%
CCc1ccccc1NS(=O)(=O)c1ccc2c(c1)OCC(C(=O)N1CCCC1)O2 (stereo not drawn),1%
COc1ccc(CNC(=O)C(C)n2ccc3cc(S(=O)(=O)N4CCCC4)ccc32)cc1OC (stereo not drawn),-1%
Cc1cccc(N2C(=O)N(CC(=O)C(C)(C)C)c3ccccc3S2(=O)=O)c1C,10%
COc1ccc(/C=C/C(=O)Nc2ccc3nc(N4CCCCC4)cc(C)c3c2)cc1OC,-1%
COC(=O)c1ccccc1NC(=O)c1cnc2sc(N3CCOCC3)nn2c1=O,8%
CCCCOc1ccc(S(=O)(=O)Nc2ccc(-c3ccc(N4CCCCC4)nn3)cc2)cc1,-1%
Cc1ccc(-c2c3c(=O)n(C)c(=O)n(C)c3c3c(C(F)(F)F)nc4ccccc4n23)cc1,-1%
CCCc1nnc(NC(=O)Cc2coc3ccc(C)cc23)s1,-1%
CNC(=O)C1CCC(Cn2c(=O)c3sccc3n(CC(=O)Nc3ccc(C)c(C)c3)c2=O)CC1 (stereo not drawn),22%
O=C(Nc1ccc2nc(SCC(=O)N3CCOCC3)sc2c1)c1ccc(Cl)cc1,20%
Cc1cc(C)c(NC(=O)Cn2nnc(-c3nc(-c4ccncc4)no3)c2N)c(C)c1,5%
CCOC(=O)c1noc2nc(C)n(CC(=O)Nc3cccc(OC)c3)c(=O)c12,0%
Cc1ccc(Sc2ccc(N3CCC(C(=O)Nc4ccc(Cl)cc4)CC3)nn2)cc1,0%
COc1cccc(NC(=O)Cn2nc(-c3ccncc3)ccc2=O)c1,3%
COc1ccccc1Cc1nc2ccccc2nc1SCC(=O)NCc1ccc(F)cc1,0%
CCCCN1CCCc2cc(CN(CCCN3CCOCC3)C(=O)Nc3ccc(CC)cc3)ccc21,-5%
COc1ccc(C(=O)c2sc3nc4c(c(C(F)(F)F)c3c2N)CN(C(C)=O)CC4)cc1OC,1%
COc1ccc(-c2nc3ccccc3o2)cc1NC(=O)c1cccc2c(Cl)cccc12,-1%
CCC(Sc1nc(-c2ccccc2)[nH]c1S(=O)(=O)c1ccc(C)cc1)C(=O)O (stereo not drawn),-4%
Cc1ccc2c(=O)cc(C(=O)Nc3ccc(S(=O)(=O)N4CCCCCC4)cc3)oc2c1C,-3%
COc1ccc(NC(=O)N2CCN(Cc3nc4ccc(C)cc4o3)CC2)cc1OC,-2%
CCN(CC)C(=O)c1sc2c(c1C)c(=O)n(CCc1ccccc1)c(=O)n2Cc1ccc(F)cc1Cl,-10%
CCCOc1ccc(C2C(=O)N(C3CCCCCC3)CC(=O)N2C(C)C)cc1OC (stereo not drawn),0%
C=Cc1ccc(Cn2c(=O)n(-c3cccc(C)c3)c(=O)c3c2c2cc(C)ccc2n3C)cc1,-2%
O=C(Nc1ccc(Cl)cc1)N1CCC(CN2CCCCCC2)CC1,-14%
COc1cccc(Cc2nc3ccccc3nc2SCC(=O)N2CCN(c3ccccc3)CC2)c1,-4%
CN1CCN(C(=O)c2ccc3c(c2)N(Cc2ccc(C(F)(F)F)cc2)C(=O)c2ccccc2S3)CC1,-5%
CCN(C(=O)CSc1nnc(-c2cc3occc3n2C)n1-c1ccccc1C)c1ccccc1,-6%
O=C(c1ccc2c(c1)N(Cc1ccc(Cl)cc1)C(=O)c1ccccc1S2=O)N1CCC(Cc2ccccc2)CC1 (stereo not drawn),26%
Cn1c2c(c(=O)n(C)c1=O)C(c1cccc(O)c1)CC(=O)N2 (stereo not drawn),-1%

Following part.
Molecule,miR-21 reporter
COc1ccc(Cn2c(SCC(=O)Nc3ccc(OC)cc3)nc3ccccc32)cc1,-5%
CCc1cccc(C)c1Nc1c(-c2cccs2)nc2ncccn12,-1%
O=C(Cn1cc(S(=O)(=O)Cc2ccccc2Cl)c2ccccc21)Nc1cccc(C(F)(F)F)c1,?
Cc1cc(C)c(NC(=O)C(C)n2c(=O)cc(-c3ccccc3)c3c(C)nn(C)c32)c(C)c1 (stereo not drawn),0%
N#CC1=C2SCN(C3CCCCC3)CN2C(=O)CC1c1ccc(Cl)cc1 (stereo not drawn),2%
CC(C)c1ccc(N2C(=O)CSC23C(=O)N(Cc2ccccc2)c2ccccc23)cc1 (stereo not drawn),22%
CCC(CC)C(=O)Nc1nnc(S(=O)(=O)N(C)c2cc(C)cc(C)c2)s1,18%
Cc1[nH]c2ccccc2c1C(c1ccccc1)c1ccc(Cl)s1 (stereo not drawn),17%
CCc1nn2c(=O)cc(COC(=O)c3cccc(NC(=O)CCc4ccccc4)c3)nc2s1,1%
CN1C(=O)c2ccccc2Sc2ccc(NC(=O)c3ccccc3F)cc21,29%
O=C(NC1CCCCC1)c1cc2c(Cl)nc3ccccc3c2s1,0%
O=C(CS(=O)(=O)c1cccc2nsnc12)Nc1ccc(F)cc1F,-7%
Cc1cc(C)cc(NC(=O)C(=O)NCC(c2cccnc2)N2CCc3ccccc3C2)c1 (stereo not drawn),1%
CCOc1ccc(NC(=O)CN(Cc2ccccc2)S(=O)(=O)c2ccc3nc(C)sc3c2)cc1,21%
Cc1nc(-c2ccccc2)sc1-c1ccc(SCC(=O)Nc2ccc(F)cc2F)nn1,-13%
Cc1cc(C)cc(NC(=O)Cn2nnc(-c3ccccc3F)n2)c1,-5%
CCN(c1ccccc1)S(=O)(=O)c1nnc(NC(=O)COc2ccc(OC)cc2)s1,-55%
COc1cc2c(cc1NC(=O)c1ccccc1C)n(C)c(=O)n2C,-1%
Cc1ccc2oc(C(=O)NCC(c3ccc(Cl)cc3)N3CCOCC3)c(C)c2c1 (stereo not drawn),10%
Cc1ccc(C(=O)NC2(C(F)(F)F)N=C(c3ccccc3)N(C3CCCCC3)C2=O)cc1 (stereo not drawn),3%
COc1cccc(-c2nc(SCC(=O)NCC3CCCO3)c(-c3ccc(C)cc3)[nH]2)c1 (stereo not drawn),22%
CC(C)Cn1c(/C=C/c2ccc(F)cc2)nc2ccccc21,-4%
Cc1ccc(CNC(=O)c2cc(NS(=O)(=O)c3ccc(C)cc3)ccn2)cc1,-3%
Cc1cccc(C(=O)Nc2cccc(OCc3cc(=O)n4ccccc4n3)c2)c1,-5%
Cc1ccccc1C(=O)Nc1ccc(OCc2cc(=O)n3cccc(C)c3n2)cc1,-1%
Oc1ccc(Nc2nc(-c3ccc(Cl)cc3)nc3ccccc23)cc1,-15%
O=C(Cc1ccccc1)Nc1cc(-c2nc3cc(Cl)ccc3o2)ccc1Cl,-9%
Cc1cccc(Nc2c(-c3cccs3)nc3nc(C)cc(C)n23)c1,1%
Cc1c(NC(=O)Nc2ccc(Cl)c(Cl)c2)sc2nc3n(c(=O)c12)CCC(C)CC3 (stereo not drawn),0%
CCOc1ccc(-n2nc(CO)c(C(=O)NCc3cccnc3)n2)cc1,11%
O=C(NCCc1ccccc1)c1c[nH]c2ccc(S(=O)(=O)Nc3ccccc3F)cc2c1=O,7%
Cc1nn(Cc2ccc(F)cc2)c(C)c1NC(=O)c1cc(CC(C)C)on1,25%
Cc1ccc(NC(=O)N2CC3CCCN3c3ccccc32)cc1C (stereo not drawn),10%
CCOc1cc(CNC(=O)c2ccc3c(c2)nc2n3CCCCC2)ccc1OC,3%
Clc1cccc(-n2cc(-c3ccccc3)c3c(NC4CCCC4)ncnc32)c1,-2%
O=C(CCc1nc2cccnc2n1Cc1cccs1)Nc1cccc(C(F)(F)F)c1,5%
COc1ccccc1NC(=O)c1cnc(SCC(=O)N2CCOCC2)n(C)c1=O,4%
Cc1cccc(CN2C(=O)c3ccccc3Sc3ccc(C(=O)NCc4cccs4)cc32)c1,-2%
Cc1oc2ncn(CC(C)C)c(=O)c2c1C(=O)Nc1ccc(Cl)cn1,-2%
CCc1ccc2c(c1)-c1ccccc1S(=O)(=O)N2CC(=O)N1CCC(C)CC1,-23%
COc1ccc(CCN2C(=O)c3[nH]nc(-c4ccccc4O)c3C2c2ccccc2)cc1 (stereo not drawn),?
CCOC(=O)C1CCCN(C(=O)c2ccc(-n3ccc4ccccc43)s2)C1 (stereo not drawn),-7%
Cc1ccc2oc(=O)c3cc(C(=O)Nc4ccc(F)cc4F)sc3c2c1,3%
Fc1ccccc1N1CCN(c2ncnc3onc(-c4ccc(Cl)cc4)c23)CC1,1%
Cc1cccc(-c2nnn3c2nc(NCc2ccc4c(c2)OCO4)c2ccccc23)c1,-15%
Cc1ccccc1-n1nc(CO)c(C(=O)NCCc2ccccc2)n1,1%

This is a subset; count on the stated rates, not on these rows.
